T. gondii = Toxoplasma gondii ME49Luc growth in HeLa cells, luciferase, no IFN-y, primary screen (AID 1259421); T. gondii ME49Luc in HeLa, luciferase, 72 h, no IFN-y; hits give low values; reference of the scale and settings of repeat entries not given here; many of its hits are not listed in these tables; activity change, negative = inhibition, %; 9.6% of 6,400 active;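 active means activity change below -70%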;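 further: about 20 µM from a 10 mM stock diluted 500-fold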
An asterisk follows results filed as active; & = joins results of further samples; ! = not confirmed by another sample.

SMILES | T. gondii
c1ccc(C(O[C@@H]2CCCN(CCc3ccc4c(c3)OCO4)C2)c2ccccc2)cc1 | -7.4&20.8
O=C(O)c1cn(-c2ccc(F)cc2)c2cc(N3CCNCC3)c(F)cc2c1=O | 6.8&11.3
Cn1c(O)c(C2=c3ccccc3=NC2=O)c2ccccc21 | 13.5
COc1ccc2cc1Oc1cc3c(cc1OC)CC[N+](C)(C)[C@H]3Cc1ccc(cc1)Oc1c(OC)c(OC)cc3c1[C@@H](C2)[N+](C)(C)CC3 | 18.6
CC(=O)N[C@@H](CSSC[C@H](NC(C)=O)C(=O)O)C(=O)O | 17.9
O=C(O)C1=CCNCC1 | 5.2
O=C1NC(=O)/C(=C/c2ccc3c(c2)OC(F)(F)O3)S1 | 133.5
CCN(CC)Cc1cc(Nc2ccnc3cc(Cl)ccc23)ccc1O | -3.0
CC1CC(OC(=O)C(O)c2ccccc2)CC(C)(C)C1 (centres undefined) | 23.0
NCCCC[C@H](NC(=O)[C@@H](Cc1cc(Br)c(O)c(Br)c1)NC(=O)N1CCC(N2Cc3ccccc3NC2=O)CC1)C(=O)N1CCN(c2ccncc2)CC1 | 15.1
COc1ccc(C(=O)/C=C/c2ccccc2)cc1 | 156.7
O=C1CC2(CCCC2)CC(=O)N1CCCCNCC1COc2ccccc2O1 (centres undefined) | 7.2&21.0
COc1cc(OC)c2c(c1Cl)OC1(C(=O)CC(=O)CC1C)C2=O (centres undefined) | 6.4
CN[C@@H](C)C(=O)N[C@H](C(=O)N1CCC[C@H]1c1nc(C(=O)c2ccc(F)cc2)cs1)C1CCCCC1 | 24.6
NS(=O)(=O)c1cc2c(cc1Cl)NC(CC1CCCC1)NS2(=O)=O (centres undefined) | 18.7
CCOC(=O)N1CSCC1C(=O)O (centres undefined) | 0.1
COc1ccc([C@@H]2CC(=O)c3c(O)cc(O)cc3O2)cc1O | 84.9&64.4
CCCN(CCc1cccs1)[C@H]1CCc2c(O)cccc2C1 | 10.9
COc1cc([C@@H]2c3cc4c(cc3[C@H](O)[C@H]3COC(=O)[C@@H]23)OCO4)cc(OC)c1OC | -71.0*
CN1CCC(NC(=O)c2cc(-c3c(O)cc(O)cc3Oc3ccc([N+](=O)[O-])cc3)on2)CC1 | -40.8
FC(F)(F)C(F)(F)C(F)(F)C(F)(F)C(F)(F)C(F)(F)C(F)(F)C(F)(F)Br | 3.0
CCCNC(C)(C)COC(=O)c1ccccc1 | 4.2
CN(C)c1ccc(C(=O)NCCCCCCC(=O)NO)cc1 | -94.9*!
Cc1cc2nc3c(=O)[nH]c(=O)nc-3n(C)c2cc1C=O | 10.7&10.0
Cc1c(S(=O)(=O)O)oc2c1C(=O)C(=O)c1c-2ccc2c1CCCC2(C)C | 12.7&8.0
CCN(CC)CCC(=O)N1c2ccccc2Sc2ccc(Cl)cc21 | 17.9
C[C@@H]1O[C@@H](Oc2c(-c3cc(O)c(O)c(O)c3)oc3cc(O)cc(O)c3c2=O)[C@@H](O)[C@H](O)[C@H]1O | 8.8
Cn1c(=O)[nH]c2ncn(C)c2c1=O | -1.0&-1.0
Cn1c(=O)cc(N2CCCC(N)C2)n(Cc2cc(F)ccc2C#N)c1=O (centres undefined) | 0.4
CCNC(=O)[C@@H]1CCCN1C(=O)[C@H](CCCN=C(N)N)NC(=O)[C@H](CC(C)C)NC(=O)[C@@H](COC(C)(C)C)NC(=O)[C@H](Cc1ccc(O)cc1)NC(=O)[C@H](CO)NC(=O)[C@H](Cc1c[nH]c2ccccc12)NC(=O)[C@H](Cc1cnc[nH]1)NC(=O)C1CCC(=O)N1 (some centres undefined) | 9.6
NCCCCCCNS(=O)(=O)c1cccc2ccccc12 | 3.2
CCCC(CCC)C(=O)OC1C[C@H]2CC[C@@H](C1)[N+]2(C)C (some centres undefined) | 9.6
O=c1c(-c2cc(O)c(O)c(O)c2)coc2cc(O)c(O)c(O)c12 | 8.7
CC(C)(Sc1ccc(CCN(CCCCC2CCCCC2)C(=O)NC2CCCCC2)cc1)C(=O)O | 11.7&26.4
COc1ccccc1N1CCN(CCN2C(=O)c3ccccc3C(C)(C)C2=O)CC1 | 0.6&22.3
CC(=O)N[C@@H](CC(C)C)C(=O)O | 10.8

Molecules from the list above that contain a Cl atom (four):
SMILES | T. gondii
CCN(CC)Cc1cc(Nc2ccnc3cc(Cl)ccc23)ccc1O | -3.0
COc1cc(OC)c2c(c1Cl)OC1(C(=O)CC(=O)CC1C)C2=O (centres undefined) | 6.4
NS(=O)(=O)c1cc2c(cc1Cl)NC(CC1CCCC1)NS2(=O)=O (centres undefined) | 18.7
CCN(CC)CCC(=O)N1c2ccccc2Sc2ccc(Cl)cc21 | 17.9

Additional entries follow.
SMILES | T. gondii
CCCCCCCCN=c1ccn(CCCCCCCCCCn2ccc(=NCCCCCCCC)cc2)cc1 | -74.7*
O=C(/C=C/c1ccc(O)c(O)c1)O[C@H](Cc1ccc(O)c(O)c1)C(=O)O | 4.3
O=C(c1cc(O)c(O)c(O)c1)c1ccc(O)c(O)c1O | 5.7
N#Cc1cc2c(OCC(O)CN3CCN(C(c4ccccc4)c4ccccc4)CC3)cccc2[nH]1 (centres undefined) | -30.0
CCN(c1ccccc1)c1cc(NC)[n+](C)c(C)n1 | 24.5
Nc1ncnc2c1ncn2C1CCCO1 (centres undefined) | 7.3&4.8
Nc1ccccc1S(N)(=O)=O | 12.3&3.4
COC[C@@H](c1ccc(C(F)(F)F)cc1)N1CCN(C2(C)CCN(C(=O)c3c(C)ncnc3C)CC2)C[C@@H]1C | 5.6
O=C(NC(Cc1cc(=O)[nH]c2ccccc12)C(=O)O)c1ccc(Cl)cc1 (centres undefined) | 2.2&23.2
COc1ccc2c(c1)OCC(Cc1ccc(OC)c(OC(C)=O)c1)C2=O (centres undefined) | -72.0*
N=C(N)c1ccc2cc(OC(=O)c3ccc(N=C(N)N)cc3)ccc2c1 | 4.7
CCCCC(F)(F)C(=O)CC[C@H]1[C@H](O)CC(=O)[C@@H]1CCCCCCC(=O)O | 7.7&34.9
CC(=O)O[C@@H]1CC2C(C)(C)[C@H](O)CC[C@]2(C)C2CC[C@@]3(C)[C@H](c4ccoc4)OC(=O)C4OC43[C@@]21C (some centres undefined) | 14.1
CC1(C)CC[C@]2(C(=O)O)CC[C@]3(C)C(=CCC4[C@@]5(C)CC[C@@H](O)C(C)(C)C5CC[C@]43C)C2C1 (some centres undefined) | 10.1
COc1cc(O)cc(OC)c1OC | 8.0
COc1ccc2c(c1OC)OC[C@@H](c1ccc(OC)c(OC)c1OC)C2 | 5.2
O=C1c2ccccc2CCC1CNCCc1ccc(O)cc1 (centres undefined) | 9.2
CCN1CCCC1=O | 1.5
CC1(COc2ccc(CC3SC(=O)NC3=O)cc2)CCCCC1 (centres undefined) | 38.2&54.6
C#C[C@]1(OC(C)=O)CC[C@H]2[C@@H]3CCC4=C[C@@H](OC(C)=O)CC[C@@H]4[C@H]3CC[C@@]21C | 1.4&-38.3
CC[C@H]1OC(=O)[C@H](C)[C@@H](O[C@H]2C[C@@](C)(OC)[C@@H](O)[C@H](C)O2)[C@H](C)[C@@H](O[C@@H]2O[C@H](C)C[C@H](N(C)C)[C@H]2O)[C@](C)(O)C[C@@H](C)[C@@H]2N[C@@H](COCCOC)O[C@H]([C@H]2C)[C@]1(C)O | 6.9
CN1CCN(C(=O)C2C3CCC(O3)C2C(=O)O)CC1 (centres undefined) | 3.3
CCCNC(=O)Nc1ccc(Oc2ncnc3cc(OC)c(OC)cc23)cc1Cl | 7.0
Cc1ccc(-n2sc(=O)n(Cc3ccc(F)cc3)c2=O)cc1 | 80.2
OC(c1ccccc1)(c1ccccc1)C12CC[N+](CCOCc3ccccc3)(CC1)CC2 | 13.9
COCCNC(=O)COc1ccc(OCCNC[C@H](O)COc2ccccc2)cc1 | 8.8
COc1ccc(-c2cc(=O)c3c(OC)c(OC)c(OC)c(OC)c3o2)cc1 | 20.5&14.7
C=C1[C@H]2CC[C@@]3(C)[C@H](c4ccoc4)OC(=O)C[C@]13O[C@H]1C[C@H](O)C(C)(C)[C@H](CC(=O)OC)[C@]12C | -4.7
CCOC(=O)CSCCC1NC(C(=O)O)CS1 (centres undefined) | 14.0&6.1
CNC(=O)C1OC(n2cnc3c(NCc4cccc(I)c4)ncnc32)C(O)C1O (centres undefined) | 5.4
Cc1onc(-c2ccccc2)c1C(=O)NC1C(=O)N2[C@@H]1SC(C)(C)[C@@H]2C(=O)O (some centres undefined) | 8.0
Nc1ncnc2c1ncn2[C@@H]1O[C@H](CO)[C@@H](O)[C@@H]1O | -51.5
Cn1cc(-c2ccc3ncc(Cc4ccc5ncccc5c4)n3n2)cn1 | -36.6
COC(=O)Cc1cccn1C | 10.9
CCN(CC)CCCCC(NC(=O)c1ccc([N+](=O)[O-])cc1)c1ccccc1 (centres undefined) | 34.1
O=C(CCCCCN1C(=O)c2cccc3cccc(c23)C1=O)NO | -90.6*
Oc1ccc([C@@H]2Oc3ccc(O)cc3[C@@H]3CCC[C@@H]32)cc1 | 6.6
CC1(C)CC[C@]2(C(=O)O)CC[C@]3(C)C(=CC[C@@H]4[C@@]5(C)CC[C@H](O)C(C)(C)[C@@H]5CC[C@]43C)[C@@H]2C1 | 16.6&-38.2
CCCCCCCCCCCCN1CCCCCC1=O | 10.1
Oc1ccc([C@H]2COc3cc(O)ccc3C2)cc1 | 19.0&80.0
C[C@@H]1O[C@@H](O[C@H]2[C@@H](Oc3cc(O)c4c(c3)O[C@H](c3ccc(O)cc3)CC4=O)O[C@H](CO)[C@@H](O)[C@@H]2O)[C@H](O)[C@H](O)[C@H]1O | -2.0
CC1(C)CCC[C@]2(C)[C@H]3CC(=O)O[C@]3(C)CC[C@@H]12 | 4.3
CO[C@H]1C=CO[C@@]2(C)Oc3c(C)c(O)c4c(O)c(c5c(nc6cc(C)ccn65)c4c3C2=O)NC(=O)/C(C)=C\C=C[C@H](C)[C@H](O)[C@@H](C)[C@@H](O)[C@@H](C)[C@H](OC(C)=O)[C@@H]1C | -17.3
O=C(O)Cc1cccc(OCCCN(Cc2cccc(C(F)(F)F)c2Cl)CC(c2ccccc2)c2ccccc2)c1 | -6.3&30.5
C=C1C(=O)CC2CC3OC3(C)CCC3OC3(C)C[C@H](OC(C)=O)C1C2(C)C (some centres undefined) | -76.2*
c1ccc(Oc2cccnc2)cc1 | 5.3
COc1ccc(OC)c(C(O)CNC(=O)CN)c1 (centres undefined) | -1.2&22.6
CC(=O)O[C@@H]1CC[C@@]2(C)C(C[C@@H](OC(C)=O)[C@@]3(C)C4=CC(=O)O[C@@H](c5ccoc5)[C@]4(C)CCC23)C1(C)C (some centres undefined) | 12.5

Reformatted field by field: four of the compounds above
C=C1C(=O)CC2CC3OC3(C)CCC3OC3(C)C[C@H](OC(C)=O)C1C2(C)C (some centres undefined)
  T. gondii: -76.2*
c1ccc(Oc2cccnc2)cc1
  T. gondii: 5.3
COc1ccc(OC)c(C(O)CNC(=O)CN)c1 (centres undefined)
  T. gondii: -1.2&22.6
CC(=O)O[C@@H]1CC[C@@]2(C)C(C[C@@H](OC(C)=O)[C@@]3(C)C4=CC(=O)O[C@@H](c5ccoc5)[C@]4(C)CCC23)C1(C)C (some centres undefined)
  T. gondii: 12.5

(further entries)
SMILES | T. gondii
CC1Nc2ccc(Cl)cc2S(=O)(=O)N1 (centres undefined) | 7.2&16.7
NCC(=O)N[C@@H](CCC(N)=O)C(=O)O | 6.6
CC(=O)Nc1nnc(S(N)(=O)=O)s1 | 14.1&18.1
Nc1nc(/C(=C/CC(=O)O)C(=O)N[C@@H]2C(=O)N3C(C(=O)O)=CCS[C@H]23)cs1 | 21.1
Nc1ncnc2c1ncn2CCOCP(=O)(O)O | 5.4
CN(CCOc1ccc(CC2SC(=O)NC2=O)cc1)c1ccccn1 (centres undefined) | -2.5&17.3
C[C@]12CC[C@@H]3c4ccc(O)cc4C[C@@H](CCCCCCCCCS(=O)CCCC(F)(F)C(F)(F)F)[C@H]3[C@@H]1CC[C@@H]2O (some centres undefined) | -83.4*
CCOC(=O)[C@H](CCc1ccccc1)N[C@@H](C)C(=O)N1[C@H](C(=O)O)C[C@H]2CCCC[C@@H]21 | 1.1
CNc1cc(OC)c(C(=O)NC2CCN(Cc3ccccc3)C2C)cc1Cl (centres undefined) | 3.1
O=C(O)CCc1ccc(NCc2cccc(Oc3ccccc3)c2)cc1 | -1.4&-18.0
O=C(COc1cccc2c(=O)[nH]ccc12)c1ccccc1 | 10.4
CC(C)[C@@H](CS(=O)(=O)C(C)C)N1C(=O)[C@@](C)(CC(=O)O)C[C@H](c2cccc(Cl)c2)[C@H]1c1ccc(Cl)cc1 | 5.9
CCC(C)[C@H]1O[C@]2(CC[C@@H]1C)C[C@@H]1C[C@@H](C/C=C(\C)[C@@H](OC3C[C@H](OC)C(O[C@H]4C[C@H](OC)[C@@H](O)[C@H](C)O4)[C@H](C)O3)[C@@H](C)/C=C/C=C3\CO[C@@H]4[C@H](O)C(C)=C[C@@H](C(=O)O1)[C@]34O)O2 (some centres undefined) | -67.1
C=CC[N@@+]12CC[C@]34c5ccccc5N5/C=C6\C7N(/C=C(\C53)[C@@H](C[C@@H]41)/C(=C/CO)C2)c1ccccc1[C@@]71CC[N@@+]2(CC=C)C/C(=C\CO)[C@@H]6C[C@@H]12 (some centres undefined) | 22.5
N#CC(c1ccc(Cl)cc1)c1c(Cl)cc(-n2ncc(=O)[nH]c2=O)cc1Cl (centres undefined) | -53.3
CCCS(=O)c1ccc2nc(NC(=O)OC)[nH]c2c1 (centres undefined) | 18.9
C[C@H]1O[C@@H](n2cc(F)c(=O)[nH]c2=O)[C@H](O)[C@@H]1O | -95.0*
CCCc1nc2c(C)cc(-c3nc4ccccc4n3C)cc2n1Cc1ccc(-c2ccccc2C(=O)O)cc1 | 26.5
O=c1cc[nH]c2cc(Cl)ccc12 | 10.2
COc1cc(-c2cc(-c3cccc(O)c3)cnc2N)cc(OC)c1OC | 20.1
OCCN1C[C@@H](O)[C@@H](O)C(O)C1CO (some centres undefined) | 10.9
CN(C)C(=O)n1nnnc1Cc1ccc(-c2ccccc2)cc1 | -68.6

These rows are one share of the data; the hit share may differ from the screen's.
